# Compound activity (PubChem BioAssay)
# Calb FLC – C. albicans growth inhibition with fluconazole, primary screen, CaCi-2 strain, Alamar Blue fluorescence; C. albicans CaCi-2 (fluconazole-resistant clinical isolate) + fluconazole, 48 h; growth inhibition, % (concentration not given with the values); 300,000 tested, 0.57% active;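 active = most replicates above 75%; inconclusive = exactly half above 75%; inactive = most below 75%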;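 note: all wells also contain fluconazole at 8 µg/ml as a sub-toxic cotreatment; 0% = median of DMSO wells and 100% = median of geldanamycin control wells; wells of about 8 µL received 7.5 nL stock; the first replicate is given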
# Ecoli rRNA inh – reduced GFP signal of wild-type E. coli, primary screen, bacterial rRNA inhibitor project, GFP/RFP fluorescence, OD600, single point | E. coli WT GFP vs humanized-ribosome RFP mutants, 24 h; stronger effect = lower value; DMSO median 0, no signal -100 | GFP signal change (wild-type ribosome), % (test concentration not listed) | 350,000 tested, 1.6% active;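 active = significant combined selectivity score with lowered wild-type GFP, culture density cut under 30%, mutant RFP and density less affected; inactive = any of these conditions unmet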; note: one replicate is shown; some compounds called inactive have numbers as strong as hits
# ALR H2O2 inh – inhibitors of human ALR sulfhydryl oxidase, primary screen, biochemical, H2O2 detection, HRP-luminol luminescence, single point; purified ALR, DTT oxidation; 290,000 tested, 3.8% active; FAD-linked sulfhydryl oxidase ALR (Homo sapiens), P55789; inhibition, % (test concentration not listed);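 active = mean and each replicate at 75% or more; inconclusive = only one of the two met; inactive = neither met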;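 note: stock transfer was 7.5 nL into about 7.5 µL; 0% = neutral wells and 100% = wells with inactivated enzyme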
# Target sequence (P55789 whole entry, looked up): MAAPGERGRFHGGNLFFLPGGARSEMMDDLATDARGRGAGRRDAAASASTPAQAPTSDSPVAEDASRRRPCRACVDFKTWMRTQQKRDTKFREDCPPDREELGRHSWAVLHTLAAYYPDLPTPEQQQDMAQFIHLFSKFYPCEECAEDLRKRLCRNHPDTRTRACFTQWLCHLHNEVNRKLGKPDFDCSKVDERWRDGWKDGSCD
# RanGTP-Impb inh – inhibitors of RanGTP-importin-beta interaction, primary screen, biochemical, FRET, CFP-Ran, YFP-importin-beta, homogeneous; Ran GTPase (GTP-bound) - importin-beta complex; AID 2216, 2009; cell-free CFP-Ran/YFP-importin-beta FRET ratio; inhibition, % (no concentration beside the values); 300,000 tested, 1.1% active;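 active = most replicates above 15%; inconclusive = exactly half above 15%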;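 note: 0% = DMSO wells and 100% = Ran loaded with GDP instead of GTP; wells of about 40 µL received 100 nL stock; the first replicate is given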
# MLL AF4-AF9 inh – inhibitors of AF4 peptide binding to AF9, primary screen, biochemical, AlphaScreen, biotin-AF4 peptide, FLAG-AF9, single point; 350,000 tested, 0.47% active; inhibition, % at 10 µM; Protein AF-9 (Homo sapiens), P42568;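 active = every replicate reaching a set inhibition limit, whatever the replicate mean, cut at about 25% in these data; inconclusive = mean inhibition reaches that limit but some replicates miss it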;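 note: 0% = plate neutral control median and 100% = total signal loss; the record names both 10 and 1 µM as test concentration; the first replicate is given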
# Target sequence (P42568 whole entry, looked up): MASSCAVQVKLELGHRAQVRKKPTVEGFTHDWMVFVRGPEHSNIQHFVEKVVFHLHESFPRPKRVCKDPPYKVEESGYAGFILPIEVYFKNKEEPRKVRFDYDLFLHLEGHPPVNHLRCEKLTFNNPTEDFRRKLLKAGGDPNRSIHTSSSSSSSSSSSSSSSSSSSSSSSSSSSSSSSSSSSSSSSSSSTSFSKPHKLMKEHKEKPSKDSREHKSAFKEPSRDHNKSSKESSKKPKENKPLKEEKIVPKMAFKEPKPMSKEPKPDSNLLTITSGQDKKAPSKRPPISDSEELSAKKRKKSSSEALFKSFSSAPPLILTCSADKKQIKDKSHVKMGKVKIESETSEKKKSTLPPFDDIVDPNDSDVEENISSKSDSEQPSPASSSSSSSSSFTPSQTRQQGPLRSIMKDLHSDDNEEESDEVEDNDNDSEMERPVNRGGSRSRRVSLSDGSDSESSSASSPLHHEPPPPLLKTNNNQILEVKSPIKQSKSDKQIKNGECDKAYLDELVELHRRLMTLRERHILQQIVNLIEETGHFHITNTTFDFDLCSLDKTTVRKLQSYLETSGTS
# Beta cell apopt – inhibitors of cytokine-induced beta cell apoptosis, primary screen, luminescence; INS-1E cytokine-induced death, ATP luminescence, 48 h; percent of positive-control rescue, neutral wells zero; protection from apoptosis, % (test concentration not listed); 300,000 tested, 0.8% active; AID 435005, 2010;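 active = all replicates at 75% or more, or half of them and the mean; inconclusive = half reach 75% but not the mean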;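 note: 0% = cytokine-treated negative control wells and 100% = positive control rescue; higher means more ATP so stronger rescue from cytokine killing; wells of about 40 µL received 100 nL stock; the first replicate is given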
# FGF22 binding – binders of human FGF22 protein, primary screen, FGF22 synaptogenesis inhibitor project, biophysical, thermal shift, single point; recombinant FGF22 thermal shift, SYPRO orange fluorescence; percent of sucrose octasulfate shift, DMSO zero; calls only at 9.99 µM; 340,000 tested, 1.5% active;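 active = melting point raised past a set limit in the mean and every replicate; inconclusive = no clear call; three in four hits are not shown here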
# Target sequence (Q9HCT0 whole entry, looked up): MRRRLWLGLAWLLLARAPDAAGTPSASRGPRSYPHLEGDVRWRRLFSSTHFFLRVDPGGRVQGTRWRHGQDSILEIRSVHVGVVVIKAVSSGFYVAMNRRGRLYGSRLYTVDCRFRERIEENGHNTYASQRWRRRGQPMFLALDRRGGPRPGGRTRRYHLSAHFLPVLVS
# T cruzi inh – inhibitors of intracellular T. cruzi growth, primary screen, luminescence, NIH3T3 host cells. T. cruzi beta-gal in NIH3T3, 90 h. inhibition, % (test concentration not listed). 300,000 tested, 1.4% active. AID 1885, 2009;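 active = mean inhibition across valid replicates above about 55%, limit read from the data; inconclusive = mean below that limit but half or more replicates reach it; inactive = mean below it, under half of replicates reach it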;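 note: signal also drops with host cell toxicity which is not excluded here; 0% = plate median of DMSO wells and 100% = zero luminescence signal; higher percent means less beta-gal luminescence so fewer parasites; stock transfer was 50 nL into about 50 µL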
# Ecoli rRNA inh OD600 – second read-out of Ecoli rRNA inh, no call of its own (marks repeat the call); OD600 change, %; measured here: OD600 growth;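 optical density of the mix in the first replicate; 0 = DMSO median and -100 = no signal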
# Ecoli rRNA inh RFP – second read-out of Ecoli rRNA inh, no call of its own (marks repeat the call); RFP signal change, %; measured here: RFP humanized mutant strains;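 first replicate; 0 = DMSO median and -100 = no signal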
# Numbers without * were called inactive; i = inactive; u = inconclusive; x = not tested or not shown.
SMILES,Calb FLC,Ecoli rRNA inh,Ecoli rRNA inh OD600,Ecoli rRNA inh RFP,ALR H2O2 inh,RanGTP-Impb inh,MLL AF4-AF9 inh,Beta cell apopt,FGF22 binding,T cruzi inh
Cc1ccc(C)c(NC(=O)CN(C)C(=O)COc2ncnc3sccc23)c1,24,11,6,-8.2,-3,-0.2,-3.0,-10,i,0
CCOc1ccc(N2CC(C(=O)NCCc3ccc(F)cc3)CC2=O)cc1 (centres undefined),-1,2,-1,-1.7,x,3.1,-1.0,0,i,-5
O=C(N/N=C/c1cc([N+](=O)[O-])ccc1O)c1ccc2c(c1)OCCO2,23,7,16,-4.7,1,1.3,3.7,105*,i,-16
CCn1nc([N+](=O)[O-])c(C(C#N)c2nc3ccccc3n2C)c(Cl)c1=O (centres undefined),9,7,7,-3.8,x,3.4,4.5,10,i,-16
O=C(O)c1ccc(N/N=C/c2c(F)cccc2Cl)cc1,-8,2,5,-2.7,42,-3.0,-9.1,-3,i,-12
O=C(Nc1csc(Cl)c1)c1ccccc1,2,-4,-10,-1.1,-2,-1.4,3.1,x,i,-12
Cn1nnnc1SCC(=O)Nc1ccc2c(c1)OCCO2,-3,3,12,-0.3,-12,1.0,-0.5,-1,i,-1
COC(=O)C1=C(Nc2ccccc2NS(=O)(=O)c2ccc(C(F)(F)F)cc2Cl)CSC1,-6,10,0,4.2,8,-0.1,5.8,5,i,-8
CCOC(=O)C(CC)n1cnc2c(nnn2-c2ccc(C)cc2)c1=O (centres undefined),-1,x,x,x,-4,0.3,x,1,x,-12
COc1ccc(C(=O)NCc2ccc(-n3cccc3)cc2)cc1OC,7,-13,-13,-0.8,-6,5.7,-0.5,-9,i,22
Cn1nccc1NC(=O)COCC(=O)O,4,20,10,-0.5,-7,4.5,x,3,i,-20
CC(C)NC(=O)CSc1nc2sccc2c(=O)n1-c1ccccc1,-1,x,x,x,3,u,-0.6,-3,i,15
COCCNC(=S)NCc1ccc2[nH]c3c(c2c1)CCCC3,-5,9,2,-0.6,94*,19*,0.1,x,i,-4
Cc1cccc(C)c1OCc1n[nH]c(=S)o1,-4,x,x,x,29,2.9,x,2,x,-10
Nc1ccn(-c2ncc(C(F)(F)F)cc2Cl)c(=O)n1,13,3,7,0.3,-2,3.1,-1.6,-2,i,-15
Cc1cccn2c(=O)nc(SCC(=O)N3N=C(c4cccs4)CC3c3ccc(F)cc3)nc12 (centres undefined),13,-13,-16,0.9,x,-1.6,1.1,x,i,67*
Cc1cccc(NC(=O)c2ccc3nccnc3c2)n1,-2,8,15,-1.3,-2,4.1,-0.8,-2,i,-12
CN(C(=O)c1ccncc1)c1ccccc1,1,8,6,-4.3,-4,7.6,-1.8,0,i,4
COc1ccc(C(=O)N(C)Cc2cnn(Cc3ccccc3)c2)cc1S(=O)(=O)N1CCOCC1,x,1,11,-2.0,x,x,-8.0,14,i,x
COc1cc(C(=O)Nc2nnc(C(F)(F)F)s2)c([N+](=O)[O-])cc1OC,3,0,-5,-5.2,-71,1.7,0.8,2,i,-4
CCOC(=O)N1CCN(CC(=O)Nc2ccc(OC)cc2)CC1,6,x,x,x,-11,-3.1,x,1,x,-13
O=C(/C=C/c1ccccc1Cl)N(Cc1ccccc1)C1CCS(=O)(=O)C1 (centres undefined),21,x,x,x,-5,-2.5,x,5,x,15
O=C(CCc1nc2ccccc2c(=O)[nH]1)Nc1cccc(S(=O)(=O)N2CCOCC2)c1,-2,-5,14,0.0,x,0.4,-6.4,0,i,-9
Cc1ccc(S(=O)(=O)N2CCCCC2)cc1NC(=O)c1cc(F)c(F)c(F)c1F,x,13,4,5.5,-1,x,-60,-7,i,x
CCN(CC)c1ccc(C(=O)OCC(=O)Nc2cc3oc4ccccc4c3cc2OC)cc1,1,x,x,x,-1,-2.3,x,2,x,-5
N/C(Cc1cccs1)=N\OC(=O)COc1ccc(Br)cc1,-13,x,x,x,0,25,x,0,x,13
CCc1cccc(NC(=O)c2snc3c(=O)[nH]cnc23)c1,1,x,x,x,1,-1.5,x,-4,x,-1
O=C(CCNS(=O)(=O)c1ccc2[nH]c(=O)oc2c1)NCc1ccc(F)cc1,6,1,11,-1.7,-1,-4.2,-3.8,-2,i,-8
O=C(NC1CCCCC1)c1ccc(CNc2ccccc2)o1,-10,x,x,x,33,-1.4,x,-4,x,0
CC(=O)Nc1ccc(OCc2ccc3c(c2)OCO3)cc1,1,8,10,14,1,2.1,2.8,1,i,0
O=S(=O)(N1CCOCC1)n1nnc2ccccc21,20,x,x,x,-8,u,x,-6,x,-1
CN1C(C(=O)NCc2ccccc2)CC2Cn3c(nc4ccccc43)C21 (centres undefined),-5,12,6,-7.5,x,0.7,1.7,0,i,-14
COCCn1c(SCC(=O)Nc2nc(C)cs2)nnc1C(C)C,-3,7,6,-1.0,-10,2.6,0.0,-2,i,u
COc1ccccc1-c1nnc(SCC(=O)N2CCCC2)o1,-1,0,-1,1.0,x,0.3,0.7,-15,i,-17
Cc1nnc(NC(=O)CSc2nnc(-c3ccco3)n2C(C)C)s1,0,0,-3,-3.1,-4,u,-4.6,-3,i,-1
N#CCCN(Cc1ccncc1)C(=S)NC1CC2C=CC1C2 (centres undefined),14,3,3,-0.2,-1,-0.1,x,-12,i,-4
O=C(CSc1nc2ccsc2c(=O)n1Cc1ccc(C(=O)O)cc1)NCC1CCCO1 (centres undefined),-8,-14,-31,-8.6,3,-2.0,1.6,-2,i,-6
Cc1cccc(N2N=C(C(=O)Nc3nc(C)cs3)CCC2=O)c1,3,5,-4,-5.7,-5,2.5,0.4,-2,i,-1
Cc1cccc(-n2c(O)c(C=Nc3ccc4c(c3)OCO4)c3ccccc3c2=O)n1,-1,x,x,x,-8,4.9,x,5,x,-16
COc1ccc(NS(=O)(=O)c2cccc(C(=O)N/N=C/c3cn(-c4ccccc4)nc3-c3ccccc3)c2)cc1,1,10,2,1.6,2,3.2,3.0,8,i,-1
CCOc1ccccc1N(CC(=O)Nc1ccc(S(=O)(=O)N2CCOCC2)cc1)S(=O)(=O)c1ccc(Cl)cc1,-8,6,7,-0.6,-17,6.7,6.0,9,i,u
CC(C)CC(=O)OC1C(N2CCOCC2)c2c(ccc(/C=C/C(=O)N3CCOCC3)c2O)OC1(C)C (centres undefined),-5,-16,-14,-13,2,-2.9,4.2,4,i,-4
COc1ccc(CCc2nnc(NS(C)(=O)=O)s2)cc1,-3,3,1,-1.3,-3,27*,0.4,x,i,1
CCC(Oc1ccccc1)C(=O)NC1CCCCCC1 (centres undefined),x,4,6,1.7,-6,x,-1.5,-1,i,0
COc1ccccc1CN1C[C@@H]2C[C@@H](c3cccc(C)c3)N3CCC[C@@]23C1=O,55,2,-5,-0.9,-2,-2.8,1.0,-1,i,16

# Molecules shown so far that have a furan ring, fused or not, in the order listed:
SMILES,Calb FLC,Ecoli rRNA inh,Ecoli rRNA inh OD600,Ecoli rRNA inh RFP,ALR H2O2 inh,RanGTP-Impb inh,MLL AF4-AF9 inh,Beta cell apopt,FGF22 binding,T cruzi inh
CCN(CC)c1ccc(C(=O)OCC(=O)Nc2cc3oc4ccccc4c3cc2OC)cc1,1,x,x,x,-1,-2.3,x,2,x,-5
O=C(NC1CCCCC1)c1ccc(CNc2ccccc2)o1,-10,x,x,x,33,-1.4,x,-4,x,0
Cc1nnc(NC(=O)CSc2nnc(-c3ccco3)n2C(C)C)s1,0,0,-3,-3.1,-4,u,-4.6,-3,i,-1

# (listing goes on)
SMILES,Calb FLC,Ecoli rRNA inh,Ecoli rRNA inh OD600,Ecoli rRNA inh RFP,ALR H2O2 inh,RanGTP-Impb inh,MLL AF4-AF9 inh,Beta cell apopt,FGF22 binding,T cruzi inh
CCOC(=O)C1CCN(S(=O)(=O)c2ccc3c(c2)CCN3C(=O)C2CCC2)CC1,-15,x,x,x,1,-1.3,x,-1,x,2
CCOCCOC(=O)COc1ccc2c(-c3ccccc3)cc(=O)oc2c1,-5,2,-8,-1.3,x,0.0,2.2,-11,i,-13
O=C(Nc1ccnn1C1CCN(Cc2ccccn2)CC1)c1cccc(F)c1,-12,1,3,1.4,-10,-0.2,-3.0,-2,i,5
O=C(Cn1ncc2c3ccccc3n(Cc3ccccc3F)c2c1=O)N1CCN(c2ccccn2)CC1,5,6,2,-0.9,-22,0.5,1.2,4,i,20
Fc1ccccc1/C=N/n1c(-c2cccnc2)n[nH]c1=S,-1,4,-8,-1.2,-4,-4.0,-3.5,-7,i,24
CCOc1cc(NC(=S)NCCCN2CCOCC2)c(OCC)cc1NC(=O)C1CCCCC1,-4,2,0,-2.5,-13,0.4,7.3,-9,x,16
COC(=O)C(C(=O)Nc1ccccc1C)C1CCCCCC1 (centres undefined),-12,-1,5,-1.2,6,-5.7,-0.8,-6,i,-2
CCOc1ccccc1NC(=O)CC1Nc2cc(C)c(C)cc2NC1=O (centres undefined),-3,x,x,x,6,1.5,x,-10,x,-3
CCCCN(C(=O)C(C)(C)Oc1ccc(Cl)cc1)c1c(N)n(CCC)c(=O)[nH]c1=O,x,6,13,-1.2,3,x,-3.8,-4,i,x

# Entries of single compounds from above. Order of screens: Calb FLC | Ecoli rRNA inh | Ecoli rRNA inh OD600 | Ecoli rRNA inh RFP | ALR H2O2 inh | RanGTP-Impb inh | MLL AF4-AF9 inh | Beta cell apopt | FGF22 binding | T cruzi inh
# Shown for `CCOCCOC(=O)COc1ccc2c(-c3ccccc3)cc(=O)oc2c1` = -5 | 2 | -8 | -1.3 | x | 0.0 | 2.2 | -11 | i | -13
# Shown for `CCOC(=O)C1CCN(S(=O)(=O)c2ccc3c(c2)CCN3C(=O)C2CCC2)CC1` = -15 | x | x | x | 1 | -1.3 | x | -1 | x | 2
# Shown for `COC(=O)C(C(=O)Nc1ccccc1C)C1CCCCCC1` (centres undefined) = -12 | -1 | 5 | -1.2 | 6 | -5.7 | -0.8 | -6 | i | -2
# Shown for `O=C(Nc1ccnn1C1CCN(Cc2ccccn2)CC1)c1cccc(F)c1` = -12 | 1 | 3 | 1.4 | -10 | -0.2 | -3.0 | -2 | i | 5
# Shown for `CCOc1ccccc1NC(=O)CC1Nc2cc(C)c(C)cc2NC1=O` (centres undefined) = -3 | x | x | x | 6 | 1.5 | x | -10 | x | -3

# These rows are one share of the data; rates above refer to the full screens.
